# Cruzain inh Det – inhibitors of Trypanosoma cruzi cruzain with detergent | P25779 | purified cruzain, Z-FR-AMC fluorescence, 0.01% Triton | Potency, µM, for the others: max response, negative = inhibition, most hits filed as inhibitors | 200,000 tested, 0.43% active | AID 1478;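 also: plate controls were neutral wells for no effect and buffer without enzyme for full effect; nearly all actives have a fitted effect of over 40% in size; top concentration of the series not given in the record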
# Target sequence (P25779 123-467 limits assumed): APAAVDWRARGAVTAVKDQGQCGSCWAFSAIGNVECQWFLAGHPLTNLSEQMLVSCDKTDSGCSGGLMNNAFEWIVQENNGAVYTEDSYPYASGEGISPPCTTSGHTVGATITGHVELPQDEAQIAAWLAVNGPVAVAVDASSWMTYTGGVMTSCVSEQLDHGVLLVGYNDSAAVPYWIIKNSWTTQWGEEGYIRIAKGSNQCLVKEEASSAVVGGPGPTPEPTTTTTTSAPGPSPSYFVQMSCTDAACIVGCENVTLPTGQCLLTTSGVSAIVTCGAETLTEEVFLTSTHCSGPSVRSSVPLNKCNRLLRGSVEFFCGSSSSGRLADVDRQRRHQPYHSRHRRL
#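 Cruzain (1.5 nM) preincubated 15 min at RT with compound in 100 mM sodium acetate pH 5.5, 5 mM DTT, 0.01% Triton X-100. Reaction started with 2 uM Z-FR-AMC; AMC fluorescence (ex 360/em 450 nm) change over 60 s gave rate.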
# Cruzain inh noDet – inhibitors of Trypanosoma cruzi cruzain without detergent; Potency, µM, for inactives: max response, negative = inhibition, usual class: inhibitors; purified cruzain, Z-FR-AMC fluorescence, no detergent; P25779; AID 1476; 200,000 tested, 2.3% active;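 also: plate controls were enzyme without inhibitor for no effect and buffer without enzyme for full effect; nearly all actives have a fitted effect of over 40% in size; top concentration of the series not given in the record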
#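 Detergent-free condition (0.00005% Triton X-100) in acetate buffer pH 5.5 with DTT. 1.5 nM enzyme and compound were pre-mixed 15 min, then 2 uM Z-FR-AMC substrate added; reaction progress from fluorescence change between first and third reads (60 s).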
# Starred values were filed as active, the others as inactive; ? = inconclusive; & = joins results of further samples. Calls follow the shape of the dose curve; as a rule, active = well fitted curve in the direction sought with a large enough effect; inconclusive = small, poorly fitted or top-dose-only effect, or another doubt; inactive = no such curve, though single readings can be large; an effect the other way counts as inactive or inconclusive. Potency is read from the fitted curve at half-maximal effect. These rows are one share of the data, so the mix of outcomes need not match the whole.
# Sample of the layout, 16 compounds:
SMILES,Cruzain inh Det,Cruzain inh noDet
COC(=O)c1ccc(C(NC(=O)OCc2ccccc2)/C(=C/[C@@H](C)C(=O)NCc2ccc(OC)c(O)c2)c2cccnc2)cc1 (stereo partly drawn),-5.5%,?
OCl,8.7%,28.4%
OCCN1CC(O)C(O)C(O)C1CO (stereo not drawn),0.3%,7.4%
CCCCCCN(C(=O)CCCCCN1C(=O)NC(c2ccc(C(F)(F)F)cc2)C(C(=O)OCc2ccccc2)=C1C)C(C(=O)NCCCC)c1ccc(OCC(=O)OC)c(C(=O)OC)c1 (stereo not drawn),2.0%,?
COC(=O)c1ccc(C(NC(=O)OCc2ccccc2)/C(F)=C/[C@@H](C)C(=O)Nc2ccc(OC)cc2)cc1 (stereo partly drawn),-2.0%,?
C[Se]CCC(N)C(=O)O (stereo not drawn),3.1%,-5.2%
COc1cc(CC(=O)OCC2=C[C@H]3[C@@H]4C(C)(C)[C@]4(OC(C)=O)[C@H](OC(=O)Cc4ccccc4)[C@@H](C)[C@]3(O)[C@@H]3C=C(C)C(=O)[C@@]3(O)C2)ccc1O,0.8%,?
O=C1O[C@H](CN2CCOCC2)CN1/N=C\c1ccc([N+](=O)[O-])o1,-6.7%,-13.1%
CC1=C2[C@@H]([C@H](C)CC[C@H]2/C=C(\C)C(=O)O)[C@H](O)C1,-0.9%,-1.7%
COc1cccc([C@@H]2Oc3ccc(OC)cc3C(=O)[C@H]2OC(=O)Nc2ccc(C)c(Br)c2)c1,-2.2%,-8.6%
NC(=O)c1cc[n+](CC2=C(C(=O)O)N3C(=O)[C@@H](NC(=O)[C@H](c4ccccc4)S(=O)(=O)[O-])[C@@H]3SC2)cc1,-1.3%,-5.8%
C=CCC(C)(O)c1ccc(OC)cc1 (stereo not drawn),0.8%,2.4%
CC1(C)S[C@H]2[C@@H](N)C(=O)N2[C@H]1C(=O)O,8.6%,-4.1%
CCCCOCCOP(=O)(OCCOCCCC)OCCOCCCC,0.3%,?
Cc1cccc([N+](=O)[O-])c1C,-0.7%,-8.4%
OCC1OC([S-])[C@H](O)C(O)C1O.[Au+] (stereo partly drawn),3.8%,12.1%

# All compounds of this part, from the first entry:
SMILES,Cruzain inh Det,Cruzain inh noDet
COC(=O)c1ccc(C(NC(=O)OCc2ccccc2)/C(=C/[C@@H](C)C(=O)NCc2ccc(OC)c(O)c2)c2cccnc2)cc1 (stereo partly drawn),-5.5%,?
OCl,8.7%,28.4%
OCCN1CC(O)C(O)C(O)C1CO (stereo not drawn),0.3%,7.4%
CCCCCCN(C(=O)CCCCCN1C(=O)NC(c2ccc(C(F)(F)F)cc2)C(C(=O)OCc2ccccc2)=C1C)C(C(=O)NCCCC)c1ccc(OCC(=O)OC)c(C(=O)OC)c1 (stereo not drawn),2.0%,?
COC(=O)c1ccc(C(NC(=O)OCc2ccccc2)/C(F)=C/[C@@H](C)C(=O)Nc2ccc(OC)cc2)cc1 (stereo partly drawn),-2.0%,?
C[Se]CCC(N)C(=O)O (stereo not drawn),3.1%,-5.2%
COc1cc(CC(=O)OCC2=C[C@H]3[C@@H]4C(C)(C)[C@]4(OC(C)=O)[C@H](OC(=O)Cc4ccccc4)[C@@H](C)[C@]3(O)[C@@H]3C=C(C)C(=O)[C@@]3(O)C2)ccc1O,0.8%,?
O=C1O[C@H](CN2CCOCC2)CN1/N=C\c1ccc([N+](=O)[O-])o1,-6.7%,-13.1%
CC1=C2[C@@H]([C@H](C)CC[C@H]2/C=C(\C)C(=O)O)[C@H](O)C1,-0.9%,-1.7%
COc1cccc([C@@H]2Oc3ccc(OC)cc3C(=O)[C@H]2OC(=O)Nc2ccc(C)c(Br)c2)c1,-2.2%,-8.6%
NC(=O)c1cc[n+](CC2=C(C(=O)O)N3C(=O)[C@@H](NC(=O)[C@H](c4ccccc4)S(=O)(=O)[O-])[C@@H]3SC2)cc1,-1.3%,-5.8%
C=CCC(C)(O)c1ccc(OC)cc1 (stereo not drawn),0.8%,2.4%
CC1(C)S[C@H]2[C@@H](N)C(=O)N2[C@H]1C(=O)O,8.6%,-4.1%
CCCCOCCOP(=O)(OCCOCCCC)OCCOCCCC,0.3%,?
Cc1cccc([N+](=O)[O-])c1C,-0.7%,-8.4%
OCC1OC([S-])[C@H](O)C(O)C1O.[Au+] (stereo partly drawn),3.8%,12.1%
C=C1C/C(=C/C)C(=O)O[C@@H]2CCN3CC=C(COC(=O)[C@]1(C)O)[C@@H]23,3.7%,-10.3%
C[C@@](N)(C(=O)O)c1cccc(CC(=O)O)c1,0.0%,4.0%
C[C@@H]1C(=O)OC2C[C@@]34[C@H]5C[C@@H](C(C)(C)C)[C@@]36C(O)C(=O)O[C@H]6O[C@@]4(C(=O)O5)[C@]21O (stereo partly drawn),0.9%,-1.5%
C=CCC(C)(O)C(=O)OCC (stereo not drawn),3.6%,2.1%
OC1CCC2Cc3ccccc3N=C12 (stereo not drawn),-0.3%,2.8%
CCCCCCCCCCCCCCCCCC(=O)NCCc1ccc(O)c(O)c1,0.2%,4.6%
CCN(CC)CCCCn1c(-c2ccccc2)nc2c(NCCOC)nc(C)nc21,-7.5%,-4.7%
COC(=O)[C@@]1(Cc2ccc(OC)cc2)[C@H]2c3cc(C(=O)N(C)C)n(Cc4ccc(S(C)(=O)=O)cc4)c3C[C@H]2CN1C(=O)c1ccccc1,-1.3%,?
CC(C)C[C@@H](CC(=O)N[C@@H](CCC(=O)O)CC(=O)O)NC(=O)[C@@H]1CNCC[C@H]1NC(=O)C[C@@H](NC(=O)C[C@H](CO)NC(=O)[C@@H]1CCCC[C@H]1N)C(C)C,3.0%,8.0%
CC/C=C\C[C@@H](/C=C/C=C\C/C=C\C/C=C\CCCC(=O)O)OO,3.1%,0.5%
Cc1cc(CNC(=O)[C@@H]2C[C@H]2[C@@H](NP(=O)(c2ccccc2)c2ccccc2)c2ccccc2)nn1C,4.6%,3.4%
BrC/C=C/CBr,1.4%,0.1%
CCCCC/C=C\CC1OC1C/C=C\C/C=C\CCCC(=O)O (stereo not drawn),9.9%,-6.6%
CCC(=O)OCC(=O)[C@@]1(OC(=O)CC)[C@H](C)C[C@@H]2[C@H]3CCC4=CC(=O)C=C[C@]4(C)[C@]3(Cl)[C@@H](O)C[C@@]21C,1.2%,?
C[C@@]12CCC(=O)C=C1C=C[C@H]1[C@H]3CC[C@](O)(CCC(=O)O)[C@]3(C)CC[C@@H]12,1.2%,3.9%
CCC(C)(C)OC,2.2%,1.0%
CCCCC[C@H](O)/C=C/C=C\C/C=C\CCCCC(=O)O,2.1%,-0.7%
OC(CCl)CCl,4.1%,-1.7%
Cc1cccc2ccccc12,0.3%,0.8%
COc1cccc2c1OC(=O)CC2c1ccccc1C (stereo not drawn),1.6%,0.3%
Cc1cc(C)c2c(-c3ccc(-c4ccc(C(F)(F)F)cc4)cc3)cc(=O)oc2c1,5.5%,25.1µM*
CN(C)CCc1c[nH]c2ccc(CC3COC(=O)N3)cc12 (stereo not drawn),7.1%,-2.6%
CCCOCC(C)OCC(C)O (stereo not drawn),0.2%,-6.5%
C[N+]1(C)CCC[C@@H](OC(=O)C(O)(c2ccccc2)c2ccccc2)C1,-2.1%,-11.2%
CN(C)c1ccc(CNC(=O)C2(C)C=CCN2C(=O)c2ccccc2)cc1 (stereo not drawn),-2.5%,-4.5%
CC1(C)[C@@H]2CC[C@@]1(C)C(=O)C2,2.9%&1.7%&2.0%,0.8%&-1.4%&4.9%
CCCn1c(-c2ccc(F)cc2)nc2c(NCCCN(CCO)CCO)nc(C)nc21,3.2%,-7.5%
C[C@H](N)CCCC(C)(C)O,-1.2%,-8.2%
O=[N+]([O-])c1ccccc1,-1.9%,-1.9%
CC1(C)CC(N=C=O)CC(C)(CN=C=O)C1 (stereo not drawn),-1.1%,-9.1%
CCC1=C2CC[C@H]3C(=O)N(C)C(=O)[C@H]3[C@H]2[C@@]2(C)C(=O)N(CC(=O)OC)C(=O)N2C1=O,-6.3%,11.8%
O=C1CCC[C@H]2[C@@H]3CCCN4CCC[C@H](CN12)[C@H]34,3.9%,-8.0%
C=C1c2ccccc2O[C@H](C(=O)OCC)C1OC (mixture of isomers),0.8%,-7.7%
N#CSCSC#N,-27.0%,-14.6%
CC[C@H](CC[C@H](C)[C@@H]1CC[C@@H]2[C@H]3CC=C4C[C@@H](O)CC[C@]4(C)[C@H]3CC[C@]21C)C(C)C,-2.3%,-6.4%
Cc1ccc([N+](=O)[O-])c(N)c1,1.7%,0.3%
O=C(OCCO)c1ccccc1O,0.5%,-1.9%
CCOc1ccccc1O[C@@H](c1ccccc1)[C@@H]1CNCCO1,6.7%,4.6%
CC[C@H](/C=C/[C@@H](C)[C@H]1CC[C@H]2C3CC=C4C[C@@H](O)CC[C@]4(C)C3CC[C@]12C)C(C)C (stereo partly drawn),-0.3%,-9.3%
COC(=O)C1(Cc2ccccc2)C=C2C(=C(c3ccccc3)C(=O)C2C)CN1 (stereo not drawn),2.4%,-4.1%
CCCCCCCCCCCCC/C=C/[C@@H](O)[C@@H](N)COP(=O)(O)O,0.2%&3.2%,-3.2%&-4.1%
CC(=O)N[C@@H](CSC/C=C(\C)CC/C=C(\C)CCC=C(C)C)C(=O)O,1.2%,9.8%
COC(=O)[C@@]1(Cc2ccc(F)cc2)[C@H]2c3cc(C(=O)N4CCCC4)n(CCN4CNCC4=O)c3C[C@H]2CN1C(=O)c1ccccc1,-4.3%,?
COc1cc(OC)c2c(c1Cl)O[C@@]1(C2=O)[C@H](C)CC(=O)C[C@@H]1OC,3.4%,-2.5%

# Part of the list above, reformatted:
> COc1cccc2c1OC(=O)CC2c1ccccc1C (stereo not drawn)
  Cruzain inh Det = 1.6%; Cruzain inh noDet = 0.3%
> Cc1cc(C)c2c(-c3ccc(-c4ccc(C(F)(F)F)cc4)cc3)cc(=O)oc2c1
  Cruzain inh Det = 5.5%; Cruzain inh noDet = 25.1µM*

# (list continues)
SMILES,Cruzain inh Det,Cruzain inh noDet
COC(=O)[C@@H]1C[C@@]2(O)[C@@H](O)[C@@H](O)[C@@H](O)C[C@H]2N1Cc1ccc(N2CCOCC2)cc1,1.9%,3.7%
C#CCO,-5.9%,5.6%
Cc1nc(NCc2ccccc2)c2nc(-c3ccccc3)n(CC3CCN(C)CC3)c2n1,3.2%,-8.8%
CC(=O)N1[C@H](C)C=C[C@]1(Cc1ccccc1)C(=O)NCc1ccccn1,1.8%,-6.9%
ClCBr,0.8%,-5.0%
C[N+]1(C)CCC[C@H]1C(=O)[O-],2.0%,-2.5%
N#CCCCS(=O)(=O)c1nnnn1C1CCCCC1,0.7%,1.4%
Cc1nc(NC2CCCCC2)c2nc(-c3ccccc3)n(CCN(C)C)c2n1,-3.5%,-1.1%
COC(=O)c1ccc(C#CC(NP(=O)(c2ccccc2)c2ccccc2)c2ccccc2)cc1 (stereo not drawn),-7.3%,-10.5%
CCCCC/C=C\C/C=C\CCCCCCCC(=O)NCCc1ccc(O)c(O)c1,-0.9%,-3.6%
Cc1ccccc1C,4.6%&-4.0%,-5.8%&-9.6%
CCCC(=O)Nc1ncnc2c1ncn2C1OC2COP(=O)(O)OC2C1OC(=O)CCC (stereo not drawn),-2.3%,-7.4%
CCCCNC(=O)C(c1ccc(OCC(=O)OC)c(C(=O)OC)c1)N(CCc1ccccn1)C(=O)CCCCCN1C(=O)NC(c2ccc(-c3ccccc3)cc2)C(C(=O)OCc2ccccc2)=C1C (stereo not drawn),-1.1%,4.7%
Cc1c(C)c2c(c(C)c1O)CC[C@@](C)(C(=O)O)O2,6.1%,1.0%
CC(C)C[C@@H](CC(=O)N[C@@H](CCCN)CC(=O)N[C@@H]1CCNC[C@H]1C(=O)N[C@H](CC(=O)N[C@@H](CCC(=O)O)CC(=O)O)Cc1ccccc1)NC(=O)[C@@H]1CNCC[C@H]1N,-0.7%,8.1%
Cc1cc2oc(=O)cc(-c3ccccc3)c2c(C)c1-c1cccc(N)c1,2.3%,?
CCCCC/C=C\C/C=C\CCCCCCCCCC(=O)NCC(=O)O,6.2%,-0.1%
CCCn1c(C)nc2c(NCCCCN(CC)CC)nc(C)nc21,-0.2%,6.8%
COC(=O)c1ccc(C(NC(=O)OCc2ccccc2)/C(F)=C/[C@@H](C)C(=O)N(C)Cc2cccnc2)cc1 (stereo partly drawn),-1.1%,?
CC(C)C[C@@H](CC(=O)N[C@@H](CCC(=O)O)CC(=O)O)NC(=O)[C@@H]1CCCC[C@H]1NC(=O)C[C@@H](NC(=O)C[C@H](CO)NC(=O)[C@@H]1CNCC[C@H]1N)C(C)C,4.5%,-5.1%
CC(=O)N[C@H]1[C@@H](O[C@@H](C)C(=O)O)[C@H](O)[C@H](CO)O[C@@H]1O,0.2%,-2.4%
CCC1=C2CC[C@H]3C(=O)N(CC)C(=O)[C@H]3[C@H]2[C@@]2(C)C(=O)N(CC(=O)OC)C(=O)N2C1=O,1.3%,2.4%
C=Cc1ccccc1C=C,-1.3%,4.4%
CCCCC[C@H](O)/C=C/C=C\C/C=C\C/C=C\CCCC(=O)O,-1.1%,-16.8%

# Source: PubChem BioAssay
